ClpP mod = qHTS Assay for Activators of ClpP | ATP-dependent Clp protease proteolytic subunit (Bacillus subtilis (strain 168)), P80244 | purified B. subtilis ClpP, FRET peptide cleavage, 20 min | Potency, µM (series often up to 57.5 µM), for the others: top-dose activity change, negative = active | actives 1.9% (n = 340,000) | AID 651965, 2013; active = well fitted falling curve with a large enough effect; inconclusive = small, poorly fitted or top-dose-only effect; inactive = no such curve, though single readings can be large or run the other way; further: potency means the concentration at half of the fitted maximal effect; the source files actives as falling curves though it sought activators and does not explain the sign; nearly all actives have a fitted effect of over 65% in size; many hits overshoot -100%
Target sequence (P80244 whole entry, looked up): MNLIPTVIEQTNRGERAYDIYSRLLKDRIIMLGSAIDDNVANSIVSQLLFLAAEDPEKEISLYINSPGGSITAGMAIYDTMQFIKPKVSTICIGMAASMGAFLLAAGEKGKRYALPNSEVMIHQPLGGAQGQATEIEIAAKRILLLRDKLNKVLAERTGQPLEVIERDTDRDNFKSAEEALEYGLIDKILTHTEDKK
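Purified B. subtilis ClpP, 10 microg/mL final in Tris/HCl pH8 with KCl, BSA, glycerol and Tween-20, cleaved an Abz/nitrotyrosine-quenched decapeptide. Fluorescence (ex 320, em 430) was read at 0 and 20 min at room temperature. Delta was normalized to 5.8 microM ADEP and DMSO/no-enzyme controls.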
gsp ag = agonists of gsp mutant (McCune-Albright syndrome); AID 624287; gsp mutant cells, cAMP HTRF, 30 min; control for the full effect not named in the record; actives 0.13% (n = 340,000); Potency, µM (doses to about 76.9 µM), for the others: at the highest dose activation (cAMP increase), usual class: activators; active = well fitted activation curve with a large enough effect; inconclusive = small, poorly fitted or top-dose-only effect, or another doubt; inactive = no such curve, though single readings can be large or run the other way; cell line not stated here;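 further: phosphodiesterase inhibitor Ro 20-1724 added with compounds to block cAMP breakdown; potency means the concentration at half of the fitted maximal effect; nearly all actives have a fitted effect of over 60% in size; about a fifth of the inactives were tested at one dose only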
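Cells in DMEM/10% FBS with G418 were pretreated with compounds in DMSO plus […] (300 uM stock) for 30 min at 37C. cAMP was measured by HTRF (cAMP-d2 plus anti-cAMP antibody-K) after 30 min at room temperature.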
TRPML1 agonist = agonists of human TRPML1 channel; Q9GZU1; TRPML1-expressing cells, Ca2+ dye fluorescence, FDSS; host cell line not named in the record; reference of the full effect not given here; activation, % (no concentration beside the values); actives 0.12% (n = 410,000); AID 624414; in the data active = activation above about 50%; inconclusive = about 30% to 50%; inactive = below about 30%; further: 0% is about no effect; the text of the record puts the active cut at 80%
Target sequence (Q9GZU1 whole entry, looked up): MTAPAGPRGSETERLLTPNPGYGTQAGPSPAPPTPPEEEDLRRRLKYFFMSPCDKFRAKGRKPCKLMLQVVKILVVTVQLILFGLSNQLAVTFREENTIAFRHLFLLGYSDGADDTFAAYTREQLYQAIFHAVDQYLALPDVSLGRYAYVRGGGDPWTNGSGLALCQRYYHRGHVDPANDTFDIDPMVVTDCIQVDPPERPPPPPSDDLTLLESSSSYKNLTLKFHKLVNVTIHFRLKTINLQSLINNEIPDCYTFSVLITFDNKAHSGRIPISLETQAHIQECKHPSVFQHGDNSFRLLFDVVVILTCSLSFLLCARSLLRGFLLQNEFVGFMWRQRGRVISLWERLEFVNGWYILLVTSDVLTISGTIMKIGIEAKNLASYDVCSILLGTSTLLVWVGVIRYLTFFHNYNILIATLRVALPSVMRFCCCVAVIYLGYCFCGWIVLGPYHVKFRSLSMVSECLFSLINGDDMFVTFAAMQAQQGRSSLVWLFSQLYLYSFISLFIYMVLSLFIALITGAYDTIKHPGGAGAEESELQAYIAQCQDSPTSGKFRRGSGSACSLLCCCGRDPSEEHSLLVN
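TRPML1-DL cells, Tet-induced overnight (~16 h, 37 degrees C), loaded 45-90 min at room temperature with Ca8 no-wash calcium dye plus quencher. FDSS fluorescence: 10 s baseline, compound pin-transfer, 110 s agonist read, then EC80 54-4 (4uM final) and 110 s antagonist read.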
Menin-MLL FL inh = displaces fluorescein MLL peptide from human menin; Fluorescence polarization, fluorescein-MLL peptide displacement from menin; FP activity change, % at 61.4 µM; 290,000 tested, under 10 active; inconclusive = falling polarisation curve, or a change in total fluorescence; inactive = total fluorescence flat and polarisation flat or rising; no compound was filed as active; the % refers to the polarisation; negative = inhibition;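 further: % of control where 0% means no effect; inhibitors lower the polarisation; unlabelled MLL peptide was the positive control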
TRPML1 inh = inhibitors of human TRPML1 channel; TRPML1-inducible cells, Ca2+ dye fluorescence, FDSS; stronger effect = lower value; inhibition of EC80 agonist-evoked calcium signal; activity change, negative = inhibition, % (concentration not given with the values); Q9GZU1; AID 624415; actives 0.02% (n = 390,000); in the data active means activity change below about -50%; inconclusive means about -30% to -50%; inactive means above about -30%;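 further: stimulus is agonist 54-4 at its EC80 concentration; on the % scale 0 is the no-effect control and ±100 the full control effect; compound concentration not given in the record; the text of the record puts the active cut at -80%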
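TRPML1-DL cells, Tet-induced overnight (~16 h, 37 °C) at 1,500 cells/well, were loaded with Ca8 no-wash dye plus quencher for 45-90 min at room temperature. Compounds were pinned during FDSS kinetic reading; agonist 54-4 at EC80 (4 uM final) then added.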
gsp antag = antagonists of gsp mutant (McCune-Albright syndrome); gsp-mutant cells, cAMP HTRF, 30 min; control for the full effect not named in the record; actives 0.4% (n = 340,000); Potency, µM (series often up to 76.9 µM), for inactives: at the highest dose activity change, negative = inhibition, hits mostly inhibitors; AID 624288; active = falling curve of any shape with a large fitted effect; inconclusive = falling curve, mostly with a smaller effect; inactive = flat or rising curve; cell line not stated here;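 further: intracellular cAMP measured with PDE inhibitor Ro 20-1724 present during compound exposure; potency means the concentration at half of the fitted maximal effect; on the % scale 0 is the no-effect control and ±100 the full control effect; nearly all actives have a fitted effect of over 65% in size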
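Cells, 2000/well, grown 16–24 h in DMEM 10% FBS with 0.5 mg/ml G418, then compounds plus […] (300 uM addition stock), 30 min at 37C. cAMP read by HTRF (cAMP-d2 and anti-cAMP antibody-K in lysis buffer) after 30 min RT.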
An asterisk follows results filed as active; ? = inconclusive; . = no result given; & = joins results of further samples; [ ] = dose if it differs, or a comment.

SMILES	ClpP mod	gsp ag	TRPML1 agonist	Menin-MLL FL inh	TRPML1 inh	gsp antag
CCN(CC(=O)Nc1cccc(S(=O)(=O)N2CCCCC2)c1)Cc1ccccc1	.	-24%[15.4 µM]	-0.3	.	0	-14%
CCN(CC)C(=O)[C@H]1C[C@H](CC(=O)NC(C)(C)C)C(=O)N2CCc3c([nH]c4ccc(Cl)cc34)[C@]12C	2.7%	.	2.9	.	-11	-9%
Fc1ccc2cnc(-c3ccccc3)cc2c1	-20%	.	-0.9	.	36	-6%
Nc1nnc(SCC(=O)N2CCN(c3ccccc3)CC2)n1-c1ccccc1	-5.4%	-56%[inhibitor]	0.8	2.2	-3	10%
CCOC(=O)C1=C(COC(=O)c2c(OC)cccc2OC)NC(=O)NC1C (stereo unspecified)	.	-6%[15.4 µM]	2.6	.	23	-10%
Cc1cc2cc(CCNC(=O)c3ccc(S(=O)(=O)N4CCCC4)cc3)c(=O)[nH]c2cc1C	-7.4%	7%	1.0	-4.5	-15	-15%
CN(CC(=O)NC1CCCCCCC1)S(=O)(=O)c1cccc2cccnc12	-3.1%	-3%	-0.2	0.9	9	-3%
CCOc1ccc(S(=O)(=O)N2CCN(c3c(C)cccc3C)CC2)c2ccccc12	-1.0%	.	4.4	.	10	.
O=C(NC1CCCCC1)C1CCCN1S(=O)(=O)c1ccc(Cl)cc1 (stereo unspecified)	.	-9%[15.4 µM]	-0.7	-0.9	-3	.
Cc1ccc(C2C(C(=O)c3sc(C)nc3C)=C(O)C(=O)N2CCN2CCOCC2)o1 (stereo unspecified)	-3.1%	8%	-0.5	-2.2	6	6%
O=C(C1CCN(S(=O)(=O)c2ccccc2F)CC1)N1CCc2ccccc2C1	-4.1%	10%[15.4 µM]	0.1	3.1	-16	-18%
Cn1c(C(=O)O)cc2cc(Oc3ccccc3)ccc21	3.8%	22%	-0.1	4.6	5	-14%
Cc1ccc(C)c(N2CCN(c3nc4ccc(C)cc4nc3-n3nc(C)cc3C)CC2)c1	-3.2%	.	-0.5	.	2	.
O=C(NC1CCCCC1)C(c1ccccc1)N(Cc1ccc2c(c1)OCO2)C(=O)c1cnsn1 (stereo unspecified)	-2.5%	-7%	1.4	1.0	11	8%
CN1C(=O)C(Cc2cnc[nH]2)NC1=S (stereo unspecified)	-0.1%	23%	0.4	5.7	-18	8%
O=C(Cc1cnc2ncnn2c1)N1CCc2c([nH]c3ccccc23)C1c1ccccc1F (stereo unspecified)	.	8%	0.2	4.8	-1	-1%
COc1ccccc1-n1c(-c2ccccc2)c[n+]2c1CCc1ccccc1-2	-1.3%&134%	-47%[inhibitor]	0.5&-0.5	-4.3&-0.6	-5&-16	1%&-1%
CC(=O)Nc1ccc(NC(=O)CSc2ccc3nnc(-c4ccccn4)n3n2)cc1	-13%	?	0.3	.	1	30%
CCC(C)NC(=O)CC(C)C (stereo unspecified)	1.0%	?	-0.6	1.4	17	12%
O=C(CCCCn1c(=O)c2ccccc2n(Cc2ccccc2F)c1=O)NCc1ccc2c(c1)OCO2	-4.4%	.	-0.5	.	-1	.
COc1ccc(NC(=O)C(=O)NCC(c2ccc3c(c2)OCO3)N2CCN(C)CC2)cc1 (stereo unspecified)	-0.1%	.	0.8	.	-5	.
Cc1cc(C)cc(Nc2cc(C)nc3ncnn23)c1	-2.9%	-58%[inhibitor]	-0.9	.	0	.
C=CCc1cccc(/C=N/NC(=O)CCC(=O)Nc2ccc(F)cc2)c1O	.	15%[15.4 µM]	1.5	10	-7	4%
O=P(CCCO)(Cc1ccccc1)Cc1ccccc1	.	-34%[inhibitor]	-0.1	-0.5	-3	4%
CCCCN1CC(COCc2ccccc2)Oc2cccc(F)c2S1(=O)=O (stereo unspecified)	-4.8%	.	1.6	.	73	-9%
CCOc1ccc(NS(=O)(=O)c2ccc(NC(=O)N3CCCC3)cc2)cc1	0.1%	.	0.2	.	-12	.
O=C(CCCN1C(=O)/C(=C/c2ccccc2Cl)SC1=S)NNC(=O)c1ccc(Cl)cc1Cl	2.2%	8%	.	4.4	.	2%
Cc1cc(C)c(S(N)(=O)=O)c(C)c1-n1cnnn1	0.7%	6%	0.3	2.1	-2	1%
CCSc1nnc(NC(=O)CCCOc2ccc(C)cc2)s1	-2.3%	?	4.4	-2.9	-5	4%
CCOC(=O)C1=C(COC(=O)COc2ccccc2C=O)NC(=O)NC1C (stereo unspecified)	-1.2%	21%[15.4 µM]	0.6	.	1	11%

Brought forward from above: two entries; new compounds follow.
SMILES	ClpP mod	gsp ag	TRPML1 agonist	Menin-MLL FL inh	TRPML1 inh	gsp antag
CCSc1nnc(NC(=O)CCCOc2ccc(C)cc2)s1	-2.3%	?	4.4	-2.9	-5	4%
CCOC(=O)C1=C(COC(=O)COc2ccccc2C=O)NC(=O)NC1C (stereo unspecified)	-1.2%	21%[15.4 µM]	0.6	.	1	11%
COc1cccc(C(C(=O)NC2CCCCC2)N(C(=O)c2ccco2)c2ccccc2OC)c1 (stereo unspecified)	.	-2%[15.4 µM]	-0.1	.	13	-23%
CC(=O)Cn1c(C(F)(F)F)nc2ccccc21	-2.5%	-4%	-1.0	2.0	-2	-9%
O=C(O)COCC(=O)Nc1ccc(OCCc2ccccc2)cc1	-1.6%	-6%	1.2	0.9	-17	-2%
O=C1CCC(=O)N1OCCOc1ccc2c(c1)CCC2	0.5%	24%	-1.0	0.8	2	12%
CS(=O)(=O)N(CC(=O)N1CCN(c2ccc(F)cc2)CC1)C1CCCCC1	-0.9%	-13%	0.1	3.2	7	0%
O=[N+]([O-])c1ccc(S(=O)Cc2ccccc2)c([N+](=O)[O-])c1 (stereo unspecified)	-3.5%	-1%	4.5	.	3	-15%
Cc1c(Cl)c(C(=O)NNC(=S)Nc2ccc(F)cc2)nn1C	.	-11%	-0.5	4.6	8	0%
CC(C)N1C(=O)CCC1C(=O)NC1CCCC1 (stereo unspecified)	-0.6%	-12%	0.6	0.5	-9	10%
CCOC(=O)C1(C)C(C(=O)OC)=C(c2ccc(OC)cc2)c2ccccc2N1C(=O)OC (stereo unspecified)	-1.8%	.	0.3	3.0	-7	-7%
COc1c(CC=C(C)C)cc(C2CC(=O)c3c(O)cc(O)cc3O2)cc1CC=C(C)C (stereo unspecified)	-8.3%	.	.	5.6	.	?
COc1ccc(C(=O)N(C)Cc2cnn(Cc3ccccc3)c2)cc1S(=O)(=O)N1CCOCC1	-1.4%	-19%	-1.0	.	-15	16%
COC(=O)c1cccc(N(C(=O)CNC(=O)c2ccco2)C(C(=O)NC2CCCC2)c2ccco2)c1 (stereo unspecified)	-1.9%	-20%	-0.2	1.2	14	5%
COC(=O)c1ccc(NC(=O)CCc2nnc3ccc(N4CCC5(CC4)OCCO5)nn23)cc1	-2.2%	27%	-0.6	-2.7	-17	-1%
Cc1cc(C)c(N2C(=O)CCCC2=O)c(Cl)c1	.	-29%	-0.3	-0.3	-5	12%
CC(C)N(Cc1nc2ccccc2[nH]1)C(C)C	-5.6%	?	-0.2	1.5	-3	4%
COc1ccc2[nH]c(=O)c(CN(CCO)C(=O)c3cccs3)cc2c1	-29%	-1%	-0.3	-1.3	-9	-6%
Cc1cc(Cl)ccc1NC(=O)C1COc2ccccc2O1 (stereo unspecified)	1.8%	-5%	1.2	-7.4	26	1%
NC(=O)c1ccc(C23CC4CC(CC(C4)C2)C3)o1	1.4%	5%	0.6	4.0	22	11%
CCN(CC)S(=O)(=O)c1ccc2c(c1)c(C(=O)O)cn2C	-13%	-24%	0.0	1.6	-5	4%
COc1ccc([C@H]2CC(=O)C=C(c3cc(C(F)(F)F)cc(C(F)(F)F)c3)C2)cc1	-1.7%	-4%	-0.2	.	14	2%
COc1ccc(Br)cc1CNC(=O)C1CCN(S(=O)(=O)N2CCCC2)CC1	-0.1%	-14%	0.0	-3.4	-2	-15%
Cc1ncc(CN2CCCC(C(=O)Nc3ccc(-c4cscn4)cc3)C2)cn1 (stereo unspecified)	-2.6%	-12%[15.4 µM]	0.3	.	-5	8%
Cc1ccc(C(=O)NC2CC3CCC(C2)N3Cc2ccco2)cc1 (stereo unspecified)	-0.9%	-38%[inhibitor]	0.0	-1.8	-6	10%
Cc1ccc(NC(=O)CCCNC(=O)c2ccc(Cl)cc2)c(O)c1	1.5%	?	0.1	1.2	-5	9%
CCOc1ccc(CCNC(=O)c2cc3c(s2)CS(=O)(=O)C3)cc1OCC	0.4%	-7%	-1.1	3.6	-4	9%
CCOC(=O)C1CCN(C(=O)c2c(C)nn(-c3ccc(F)cc3)c2-n2cccc2)CC1	-0.8%	.	1.5	.	22	.
CS(=O)(=O)NCCCNc1ccc(Cl)cc1[N+](=O)[O-]	-0.4%	15%	0.7	0.1	13	0%
CCc1nc2ccc(C(=O)NCCC(C)C)cn2c1N(C)Cc1nccs1	-3.4%	.	-0.6	.	41	.
COc1ccc(N(CC(=O)N/N=C(\C)CCc2ccccc2)S(=O)(=O)c2ccc(C)cc2)cc1	0.0%	-33%[inhibitor]	1.4	3.0	-9	-2%
Cc1cc(N2CCOCC2)ccc1/C=C1\NC(=O)N(Cc2ccccc2)C1=O	-6.3%	22%	0.9	7.1	-4	-25%
Cc1nc2c(c(C)nn2-c2ccccc2)c(C)c1C	-0.8%	-7%[15.4 µM]	1.8	.	-5	3%
C=CCOc1cccc(C2C(C(=O)c3cc4ccccc4o3)=C(O)C(=O)N2c2cc(C)on2)c1 (stereo unspecified)	-0.3%	?	1.8	-0.4	1	0%
COc1ccccc1CCNC(=O)CCc1c(C)c2cc3c(C)coc3cc2oc1=O	4.2%	.	-0.2	.	-15	.
CN(CC(=O)Nc1ccccc1C(F)(F)F)C(=O)COc1ccccc1Cc1ccccc1	1.4%	-21%	-0.3	.	4	-9%
COc1ccc2sc(N(CCN(C)C)C(=O)c3ccc4ccccc4c3)nc2c1	7.6%	-62%[inhibitor]	0.1	2.4	15	-1%
CCOc1ccc2ccccc2c1CNc1nnnn1CC	.	5%[15.4 µM]	1.8	2.0	6	-5%
CN1/C(=C\C(=O)c2cncc(Br)c2)C(C)(C)c2ccccc21	-1.5%	28%	0.6	18	14	?
CCOC(=O)c1sc(=NC(=O)c2cccc(C)c2)n(C)c1C	.	10%[15.4 µM]	1.0	5.6	0	-4%
CCOC(=O)c1nn(-c2ccccc2)c(=O)c2c(N)scc12	-1.7%	-5%	0.3	1.7	-1	10%

Outcome played no part in choosing rows, and some 2.1% of all compounds hit somewhere here.
